VDR inh = blocks the human vitamin D receptor; P11473; VDR-SRC2-3 peptide fluorescence polarization, 2 h; Potency, µM, without a hit: max response, negative = inhibition, most hits filed as inhibitors; hit rate 0.93% among 400,000; active = well fitted inhibition curve with a large enough effect; inconclusive = small, poorly fitted or top-dose-only effect, or another doubt; inactive = no such curve, though single readings can be large or run the other way; also: series mostly up to about 120 µM
Target sequence (P11473 whole entry, looked up): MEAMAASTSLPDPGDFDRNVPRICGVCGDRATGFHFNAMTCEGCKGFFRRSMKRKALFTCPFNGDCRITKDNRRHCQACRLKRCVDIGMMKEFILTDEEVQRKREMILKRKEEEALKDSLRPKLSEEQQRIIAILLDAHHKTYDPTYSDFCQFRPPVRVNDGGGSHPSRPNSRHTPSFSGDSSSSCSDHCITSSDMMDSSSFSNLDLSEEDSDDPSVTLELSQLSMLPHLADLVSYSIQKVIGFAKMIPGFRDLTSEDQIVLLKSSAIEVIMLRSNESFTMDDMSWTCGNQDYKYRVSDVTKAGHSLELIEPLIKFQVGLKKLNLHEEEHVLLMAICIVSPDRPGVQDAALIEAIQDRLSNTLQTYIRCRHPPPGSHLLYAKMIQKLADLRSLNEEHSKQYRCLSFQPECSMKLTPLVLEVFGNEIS
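Two reagent solutions held at 4 deg C in the dark were dispensed, compounds pinned at 23 nl, and the mixture incubated 2 h at room temperature. Read-out: fluorescence polarization of VDR–SRC2-3 peptide binding.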
* = called active by the depositor; ? = inconclusive. % is scaled to controls: 0 for no effect and ±100 for the full control effect; potency is read from the fitted curve at half-maximal effect. An excerpt (hit frequency here may not be typical).

VDR inh	Molecule
-18.0%	O=C(NC(=S)Nc1ccccc1N1CCCC1)c1ccc(F)cc1
3.3%	OCCC1CN(CCCc2ccccc2)CCN1Cc1ccccc1 (stereo not drawn)
1.2%	O=C(CN(C(=O)CSc1nc2ccccc2o1)c1cccc(F)c1)NC1CCCCC1
8.0%	CCOC(=O)C1CCCN(CCC(=O)Nc2cccc(F)c2)C1 (stereo not drawn)
16.2%	COc1cc2cc3c(N)c(C(=O)Nc4sc(C)c(C)c4C#N)sc3nc2cc1OC
-2.4%	Cn1nc(C(=O)Nc2ccc(Cl)cc2)cc1C(=O)Nc1ccc(Cl)cc1
-8.4%	c1ccc(Cn2nnc3c(N4CCOCC4)ncnc32)cc1
-3.3%	COC(=O)c1c(NC(C)=O)csc1C
1.9%	CCOC(=O)C1=NN(c2cccc(C)c2)C2(S1)SC(C(C)=O)=C(C)N2c1ccccc1 (stereo not drawn)
2.6%	Cc1oc(-c2ccc(Cl)cc2)nc1CS(=O)CC(=O)NCc1ccco1 (stereo not drawn)
1.3%	CCOC(=O)c1oc2cccc(O)c2c1CN(Cc1ccccc1)C(C)=O
-8.4%	Cc1ccccc1S(=O)c1ccccc1C(=O)O (stereo not drawn)
-2.4%	COc1ccc(CN2CCN(C(=O)Cn3nc(C)n4cccc4c3=O)CC2)c(OC)c1OC
4.5%	Cc1ccc(C(=O)NCCOC23CC4CC(CC(C4)C2)C3)cc1
-8.4%	CCOc1ccccc1C(=O)N[C@H](C(=O)Nc1nc2c(s1)CCCC2)C(C)C
-25.5%	CN(Cc1ccccc1F)C(=O)CCNC(=O)c1ccc(C(C)(C)C)cc1
15.8%	Cc1cc(C)n(C(C)CC(=O)Nc2ccc(C)c(N(C)C)c2)n1 (stereo not drawn)
13.5%	O=C1c2ccccc2C(=O)N1CC1c2ccccc2CCN1C(=O)CN1CCOCC1 (stereo not drawn)
-3.8%	O=C(COc1ccc(C(=O)c2ccccc2)cc1)Nc1cccnc1
10.7%	CCOC(=O)c1c(S(=O)(=O)N2CCCC(C(=O)Nc3cc(C)ccc3OC)C2)c(C)n(C)c1C (stereo not drawn)
-14.6%	Cc1cc(C)nc(SCC(=O)O)n1
-6.1%	Cc1cccc(NS(=O)(=O)c2ccc(Oc3ccccc3)cc2)n1
2.5%	O=C(CSc1nc2ccccc2n1S(=O)(=O)c1ccccc1)N1CCCCC1
-0.3%	NC(=O)C1CCCN1Cc1ccc2c(c1)OCO2 (stereo not drawn)
1.5%	CCSc1nnc(SCC(=O)NNC(=O)c2ccccc2F)s1
-0.6%	CC1(C)Cc2c(sc3c2c(=N)n(Cc2ccco2)c(=O)n3Cc2ccccc2)CO1
-4.0%	C/C(=C\COc1cc(=O)[nH]c2ccccc12)CCC(O)C(C)(C)O (stereo not drawn)
-5.7%	COc1cc(CNc2nc3ccccc3n2C)cc(OC)c1OC
-8.4%	COc1cccc(OC)c1C(=O)N1CCN(C(=O)c2ccc(-c3ccccc3)cc2)CC1
-1.0%	Cc1nn(C2CCS(=O)(=O)C2)c(Cl)c1/C=C/C(=O)OCC(=O)Nc1ccccc1[N+](=O)[O-] (stereo not drawn)

VDR inh	Molecule
-0.9%	Cc1cc(-c2cc(C(=O)NC3CCCC3)on2)nc(NCC2CC2)n1
12.3%	CC(=O)c1ccccc1NC(=O)COC(=O)CCCN1C(=O)c2cccc3cccc(c23)C1=O
1.1%	Cc1ccc(S(=O)(=O)N2CCCCC2)cc1NC(=O)COC(=O)C1=COCCO1
-3.3%	O=S(=O)(NC1CCCCCCC1)c1cccs1
-7.4%	CC(NC(=O)c1ccc(CS(C)(=O)=O)cc1)c1ccc(-c2ccccc2)cc1 (stereo not drawn)
3.5%	O=C1CN=C(Nc2ccccc2)N1Cc1cccs1
3.8%	COc1cccc(NC(=O)c2sc3nc(C)c(C(=O)Nc4ccc(Cl)cc4)c(-c4ccc(Br)cc4)c3c2N)c1
11.0%	COc1ccc(C(=O)Nc2ccccc2SCc2cc(=O)n3nc(C)sc3n2)cc1OC
-13.2%	O=C(NCc1ccc(C(F)(F)F)cc1)C12CN(Cc3ccccc3)CC1C(c1cccc([N+](=O)[O-])c1)=NO2 (stereo not drawn)
-28.7%	COc1ccc(NC(=S)Nc2cccc(C(F)(F)F)c2)c(C)c1
-21.9%	O=C(c1ccc(Cl)nc1)N1CCN(S(=O)(=O)c2ccc3c(c2)OCCO3)CC1
2.6%	Cc1ccc(-c2nc3ccccc3[nH]2)s1
3.1%	O=C(NC(Cc1c[nH]c2ccccc12)c1nnc2n1CCCCC2)c1ccccc1 (stereo not drawn)
-10.7%	Cc1ccc(C)c(N2N=C(C(=O)Nc3cccc(S(=O)(=O)N4CCCCC4)c3)CCC2=O)c1
4.2%	Cc1cc(C)cc(COn2ccnc2)c1
4.9%	COC(=O)C1=C(N)OC2=C(C(=O)CC(C)(C)C2)C1c1cccs1 (stereo not drawn)
22.3%	Cc1ccc(-n2ncc(C(=O)NCc3cccs3)c2C2CCN(C(=O)OC(C)(C)C)CC2)cc1C
-11.5%	O=C(NC(=S)N1CCCc2ccccc21)c1ccc([N+](=O)[O-])cc1
3.5%	COc1ccc(S(=O)(=O)CCC(=O)N2CCN(c3ccc([N+](=O)[O-])cc3)CC2)cc1
4.4%	C/C(=N\NC(=O)c1ccccc1O)c1c(O)cc(C)oc1=O
4.4%	O=C(NNc1nc2ccc(Cl)cc2s1)c1cc(-c2cccs2)nc2ccccc12
-8.4%	CCc1ccc(NC(=O)N2CC=C(c3c[nH]c4ccccc34)CC2)cc1
-1.9%	CCOC(=O)c1c(C)oc2c1cc(NS(=O)(=O)c1ccc(C(=O)O)cc1)c1ccccc12
12.5%	Cc1ccc(N(CN2C(=O)NC(C)(C)C2=O)CN2C(=O)NC(C)(C)C2=O)cc1
13.5%	O=C(NC1CCCCC1)c1ccccc1NC(=O)C1CC(=O)N(c2ccccc2)C1 (stereo not drawn)
4.6%	COc1ccc(C(=O)NNC(=O)CN2CCC(n3nnc4cc(C(F)(F)F)ccc43)CC2)cc1
4.5%	COc1ccc(N(Cc2ccccc2)C(=O)c2nc(SC)ncc2Cl)cc1
-6.9%	Cc1nn(-c2ccccc2)c2sc(C(=O)O)cc12
-16.2%	CCC(CC)COC(=O)C(C#N)c1nc2ccccc2nc1N1CCN(CC)CC1 (stereo not drawn)
23.1%	CSc1ccn(CCC(=O)O)c(=O)n1

VDR inh	Molecule
-2.2%	COc1ccc(-c2[nH]ncc2CN(CCO)CC23CC4CC(CC(C4)C2)C3)c(OC)c1
9.4%	CN(c1ccc(C(=O)Nc2nccs2)cc1)S(=O)(=O)c1ccccc1
6.9%	CCOC(=O)CNC(=O)c1cccnc1Oc1ccc(Cl)cc1
-10.7%	CCCS(=O)(=O)Nc1c(OC)ccc2c1c(C(=O)OCC)c(C)n2C
-2.6%	CCOc1ccccc1NC(=O)Cn1ncc2c([nH]c3ccccc32)c1=O
1.2%	CCOc1ccc2nc(NC(=O)c3cc(=O)c4cc(C)cc(C)c4o3)sc2c1
-6.7%	Cc1cc(C)cc(-n2c(SCC(=O)Nc3ccccc3)nc3c(oc4ccccc43)c2=O)c1
5.8%	Cc1ccc(NC(=O)CN(C)C(=O)Cn2c(=O)oc3ccccc32)cc1
-18.0%	CCCCCCN(C(=O)CCCN1C(=O)NC(c2ccc(-c3ccccc3)cc2)C(C(=O)OCc2ccccc2)=C1C)C(C)C(=O)NCCCC (stereo not drawn)
0.5%	COC(=O)C(C)Oc1ccc(-c2nccc(-c3cccs3)n2)cc1 (stereo not drawn)
0.2%	Cc1ccc(S(=O)(=O)c2nc(-c3ccccc3)oc2N2CCN(c3ccccc3)CC2)cc1
18.1%	CN1CCN(C(=O)CN(Cc2ccc(Cl)cc2)S(C)(=O)=O)CC1
?	COc1ccc(NC(=O)c2c(N)no[n+]2[O-])c(OC)c1
3.9%	Clc1ccc(OCCOCCN2CCCCC2)c(Br)c1
13.4%	COc1ccc(/C(C)=N/NC(=S)NCCc2ccccc2)c(O)c1
6.7%	O=S(=O)(NCc1ccc(Cl)cc1Cl)c1cccs1
5.7%	O=C(COC(=O)c1cccnc1Cl)NCCCc1ccccc1
?	CC(O)/C=C/c1ccc2ccccc2n1 (stereo not drawn)
15.3%	O=C(O)c1cccc(Br)c1
-0.1%	N#CCCS(=O)(=O)c1ccc(N)cc1
-2.9%	O=C(NC(Cc1ccc(O)cc1)C(=O)O)c1ccco1 (stereo not drawn)
2.5%	CCOC(=O)/C=C1\SCC(=O)N1CC(=O)N1CCOCC1
4.8%	C/C(N)=C(/C#N)C(=O)COC(=O)c1ccc(C#N)cc1
79.4µM*	CN(Cc1cn(-c2ccccc2)nc1-c1cc2ccccc2o1)C(=O)CCC(=O)O
-9.3%	CCOc1ccc2[nH]c(C)c(CN3CCOCC3)c(=O)c2c1
-3.1%	CCOc1cc(C=NNC(=O)CCCC(=O)NN=Cc2ccc(O)c(OCC)c2)ccc1O
-3.9%	C=CCn1c(SCC(=O)NNC(=S)Nc2ccccc2)nnc1-c1ccccc1
-15.3%	COc1ccccc1-c1cnn2c(NCc3ccccc3)cc(C)nc12
-4.2%	CCOc1ccc(N(CC(=O)N/N=C(\C)c2cccc(NC(C)=O)c2)S(=O)(=O)c2ccccc2)cc1
3.4%	COc1ccc(N2CCN(C(=O)c3cccnc3)CC2)c([N+](=O)[O-])c1

Already shown: entries from further up.
VDR inh	Molecule
-2.2%	COc1ccc(-c2[nH]ncc2CN(CCO)CC23CC4CC(CC(C4)C2)C3)c(OC)c1
9.4%	CN(c1ccc(C(=O)Nc2nccs2)cc1)S(=O)(=O)c1ccccc1
6.9%	CCOC(=O)CNC(=O)c1cccnc1Oc1ccc(Cl)cc1
-10.7%	CCCS(=O)(=O)Nc1c(OC)ccc2c1c(C(=O)OCC)c(C)n2C
-2.6%	CCOc1ccccc1NC(=O)Cn1ncc2c([nH]c3ccccc32)c1=O

7 records drawn at random from the list so far:
VDR inh	Molecule
-14.6%	Cc1cc(C)nc(SCC(=O)O)n1
9.4%	CN(c1ccc(C(=O)Nc2nccs2)cc1)S(=O)(=O)c1ccccc1
13.5%	O=C(NC1CCCCC1)c1ccccc1NC(=O)C1CC(=O)N(c2ccccc2)C1 (stereo not drawn)
-2.2%	COc1ccc(-c2[nH]ncc2CN(CCO)CC23CC4CC(CC(C4)C2)C3)c(OC)c1
-4.0%	C/C(=C\COc1cc(=O)[nH]c2ccccc12)CCC(O)C(C)(C)O (stereo not drawn)
5.8%	Cc1ccc(NC(=O)CN(C)C(=O)Cn2c(=O)oc3ccccc32)cc1
79.4µM*	CN(Cc1cn(-c2ccccc2)nc1-c1cc2ccccc2o1)C(=O)CCC(=O)O

Later entries
VDR inh	Molecule
-13.0%	CC(O)c1nc2ccccc2n1Cc1nnc(-c2ccc(Cl)cc2)o1 (stereo not drawn)
-7.1%	O=C(CC1SC(N2CCOCC2)=NC1=O)Nc1cc([N+](=O)[O-])ccc1Cl (stereo not drawn)
19.1%	CSc1ncc(Cl)c(C(=O)Nc2cc(C(F)(F)F)ccc2Cl)n1
-3.5%	CCOc1ccc(NC(=O)CCC(=O)NNC(=O)c2ccccc2Cl)cc1
9.5%	Cc1ccc(NS(=O)(=O)c2ccc(C(=O)N3CCN(c4ncccn4)CC3)cc2)cc1
9.0%	COc1ccc(C(=O)Nc2nc(-c3ccccc3)c(C(C)=O)s2)c(OC)c1
11.4%	CCOC(=O)c1c(C)[nH]c(C)c1S(=O)(=O)N1CCCC(C(=O)Nc2ccc(C)cn2)C1 (stereo not drawn)
-3.3%	COCCn1c(=O)cnc2cnc(N3CCN(C)CC3)nc21
-18.3%	CCCOc1ccc(/C(O)=C2/C(=O)C(=O)N(CCN3CCOCC3)C2c2ccccc2)cc1 (stereo not drawn)
-3.0%	O=C(NCC1CCCO1)C(c1cccs1)N(Cc1cccs1)C(=O)c1ccc(-c2ccccc2)[nH]1 (stereo not drawn)
-3.4%	COc1cc(/C=C/C(=O)Nc2cccc(S(=O)(=O)N3CCOCC3)c2)ccc1OCC#N
-6.8%	CC(C)n1nc(C(=O)Oc2cccc(Cl)c2Cl)c2ccccc2c1=O
-13.5%	O=C(OCc1ccc([N+](=O)[O-])cc1)c1ccc(N2CCCC2)c([N+](=O)[O-])c1
11.3%	COc1cccc(/C=C/C(=O)OCC(=O)c2ccc3c(c2)NC(=O)CO3)c1
-6.5%	CCCCC(CC)CNC(=O)CCS(=O)(=O)c1cccc2nonc12 (stereo not drawn)
-9.2%	CCCCn1c(N)c(N(CC)C(=O)c2cccc(F)c2)c(=O)[nH]c1=O
0.2%	O=C(NC1CC1)C1CCN(c2ccc(S(=O)(=O)N3CCOCC3)cc2)CC1
?	COC(=O)c1c(-c2ccc(Cl)cc2)noc1N1CCN(c2ccccc2F)CC1
0.0%	CC(=O)c1cc(CN2CCN(CCc3ccccc3)C(CCO)C2)cs1 (stereo not drawn)
-10.0%	CCCCNC(=O)c1nn2c(C(F)(F)F)cc(-c3ccccc3)nc2c1Br
9.2%	O=C(NCC(=O)N(c1ccccc1F)C(C(=O)NC1CCCC1)c1cccnc1)c1ccco1 (stereo not drawn)
-4.5%	CCOc1ccc2oc(-c3ccccc3)c(C(=O)O)c2c1
8.6%	CCc1cccc(C)c1NC(=O)COC(=O)CNS(=O)(=O)/C=C/c1ccccc1
-2.0%	Cc1cc(Br)ccc1OCCN1CC(C)OC(C)C1 (stereo not drawn)
0.5%	O=C(COc1ccc2cc(-c3ccccc3)c(=O)oc2c1)NCC1CCC(C(=O)O)CC1 (stereo not drawn)
?	COc1ccc(-c2cc(C(=O)NCCCn3ccnc3)no2)cc1OC
20.1%	O=S(=O)(c1cc(-c2nnc(-c3ccc(Br)cc3)o2)ccc1Br)N1CCCCCC1
-4.7%	COc1ccc(N2CCN(c3nc4cc(C)ccc4cc3C=O)CC2)cc1
5.2%	CC(C)(C)C1CCc2nc(NC(=O)Cc3ccccc3)sc2C1 (stereo not drawn)
-17.5%	Cn1c(=O)nc2n(Cc3ccccc3)c3ccccc3cc-2c1=O
1.2%	Nc1ccc(-c2nc3cc([N+](=O)[O-])ccc3o2)cc1

Screening results deposited in PubChem by National Center for Advancing Translational Sciences (NCATS).
